From PubChem BioAssay
TRPML1 inh: human mucolipin-1 channel inhibition; Q9GZU1; actives 0.02% (n = 390,000); activity change, negative = inhibition, % (no concentration beside the values); TRPML1-inducible cells, Ca2+ dye fluorescence, FDSS; active compounds read low; inhibition of EC80 agonist-evoked calcium signal; in the data active means activity change below about -50%; inconclusive means about -30% to -50%; inactive means above about -30%;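 further: stimulus is agonist 54-4 at its EC80 concentration; on the % scale 0 is the no-effect control and ±100 the full control effect; compound concentration not given in the record; the text of the record puts the active cut at -80%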
Target sequence (Q9GZU1 whole entry, looked up): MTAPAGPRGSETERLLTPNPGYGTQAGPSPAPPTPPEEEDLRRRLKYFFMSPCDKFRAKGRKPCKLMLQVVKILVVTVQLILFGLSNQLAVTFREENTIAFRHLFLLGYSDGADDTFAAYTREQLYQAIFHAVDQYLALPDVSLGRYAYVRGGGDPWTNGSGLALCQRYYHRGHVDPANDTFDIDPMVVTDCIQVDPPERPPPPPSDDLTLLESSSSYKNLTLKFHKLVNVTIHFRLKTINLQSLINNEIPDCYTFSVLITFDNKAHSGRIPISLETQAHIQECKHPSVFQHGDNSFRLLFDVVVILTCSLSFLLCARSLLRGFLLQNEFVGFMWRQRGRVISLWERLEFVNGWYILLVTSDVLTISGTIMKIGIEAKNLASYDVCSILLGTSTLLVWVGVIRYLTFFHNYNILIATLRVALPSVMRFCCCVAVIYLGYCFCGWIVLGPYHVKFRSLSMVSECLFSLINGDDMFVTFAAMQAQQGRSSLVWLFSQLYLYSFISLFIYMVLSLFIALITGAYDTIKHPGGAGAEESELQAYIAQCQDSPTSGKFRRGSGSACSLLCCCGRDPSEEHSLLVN
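TRPML1-DL cells, Tet-induced overnight (~16 h, 37 °C) at 1,500 cells/well, were loaded with Ca8 no-wash dye plus quencher for 45-90 min at room temperature. Compounds were pinned during FDSS kinetic reading; agonist 54-4 at EC80 (4 uM final) then added.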
ClpP mod: qHTS Assay for Activators of ClpP; ATP-dependent Clp protease proteolytic subunit (Bacillus subtilis (strain 168)), P80244; purified B. subtilis ClpP, FRET peptide cleavage, 20 min; Potency, µM (highest dose often 57.5 µM), without a hit: top-dose activity change, negative = active; actives 1.9% (n = 340,000); AID 651965, 2013; active = well fitted falling curve with a large enough effect; inconclusive = small, poorly fitted or top-dose-only effect; inactive = no such curve, though single readings can be large or run the other way; further: potency means the concentration at half of the fitted maximal effect; the source files actives as falling curves though it sought activators and does not explain the sign; nearly all actives have a fitted effect of over 65% in size; many hits overshoot -100%
Target sequence (P80244 whole entry, looked up): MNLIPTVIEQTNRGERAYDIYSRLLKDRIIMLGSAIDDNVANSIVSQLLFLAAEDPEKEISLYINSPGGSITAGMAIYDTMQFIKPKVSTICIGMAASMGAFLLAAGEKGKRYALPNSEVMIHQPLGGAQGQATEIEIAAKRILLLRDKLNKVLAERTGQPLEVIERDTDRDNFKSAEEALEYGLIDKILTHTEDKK
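ClpP 10 microg/mL final, pH 8 Tris/KCl buffer with BSA, glycerol, Tween-20; compound pinned in; FRET-FV substrate; RT 20 min; Ex320/Em430; ΔFRET vs ADEP 5.8 microM, DMSO, no enzyme.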
gsp antagonist: gsp mutant antagonism; gsp-mutant cells, cAMP HTRF, 30 min; control for the full effect not named in the record; Potency, µM (top dose mostly 76.9 µM), inactives show at the highest dose activity change, negative = inhibition, most hits filed as inhibitors; actives 0.4% (n = 340,000); AID 624288; active = falling curve of any shape with a large fitted effect; inconclusive = falling curve, mostly with a smaller effect; inactive = flat or rising curve; cell line not stated here;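 further: intracellular cAMP measured with PDE inhibitor Ro 20-1724 present during compound exposure; potency means the concentration at half of the fitted maximal effect; on the % scale 0 is the no-effect control and ±100 the full control effect; nearly all actives have a fitted effect of over 65% in size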
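Measurement of cellular cAMP by homogeneous time-resolved fluorescence following a 30 min compound exposure at 37C. The PDE inhibitor […] was present throughout; the assay buffer was DPBS with 0.05% BSA and 0.005% Tween 20.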
Sfp PPTase inh: blocks B. subtilis Sfp PPTase activity. Potency, µM, inactives show max response, negative = inhibition, hits mostly inhibitors. Biochemical Sfp PPTase activity, qHTS. actives 3.5% (n = 310,000); active means well fitted inhibition curve with a large enough effect; inconclusive means small, poorly fitted or top-dose-only effect, or another doubt; inactive means no such curve, though single readings can be large or run the other way;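 further: the enzyme is Sfp with the accession as filed and its product quenches rhodamine fluorescence; potency means the concentration at half of the fitted maximal effect; 0% = enzyme reaction without inhibitor and -100% = no enzyme wells; top concentration of the series not given in the record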
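Fluorescence-quenching assay: 15 nM Sfp-PPTase preincubated 15 min at room temperature with compound, then 5 uM rhodamine-CoA and 12.5 uM BHQ-2-labelled YbbR peptide added. Fluorescence (ex 525/em 598 nm) read at start and after 30 min; difference gives rate.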
TRPV1 potentiator: potentiators of human vanilloid receptor 1 (TRPV1) | Q8NER1 | TRPV1-expressing cells, Fluo-8 calcium influx, capsaicin EC20 potentiation; host cell line not named in the record; control for the full effect not named in the record | potentiation, % at 8.33 µM | actives 0.02% (n = 320,000); active means potentiation above 80%; inconclusive means 30% to 80%; inactive means below 30%; further: 0% is about no effect
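Fluo-8 calcium influx in TRPV1-expressing cells, kinetic read (ex 480/em 520 nm). Compound added and read 3 min for agonist activity, followed by capsaicin at EC20 final and 2 min further read for enhancement.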
Menin MLL FP FL: inhibitors of human menin-MLL interaction, wild-type MLL peptide. Fluorescence polarization, fluorescein-MLL peptide displacement from menin. FP activity change, % at 61.4 µM. 290,000 tested, under 10 active; inconclusive = falling polarisation curve, or a change in total fluorescence; inactive = total fluorescence flat and polarisation flat or rising; no compound was filed as active; the % refers to the polarisation; negative = inhibition;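 further: % of control where 0% means no effect; inhibitors lower the polarisation; unlabelled MLL peptide was the positive control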
gsp ag: gsp mutant agonism; actives 0.13% (n = 340,000); Potency, µM (highest dose often 76.9 µM), inactives show top-dose activation (cAMP increase), usual class: activators; gsp mutant cells, cAMP HTRF, 30 min; control for the full effect not named in the record; active = well fitted activation curve with a large enough effect; inconclusive = small, poorly fitted or top-dose-only effect, or another doubt; inactive = no such curve, though single readings can be large or run the other way; cell line not stated here;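 further: phosphodiesterase inhibitor Ro 20-1724 added with compounds to block cAMP breakdown; potency means the concentration at half of the fitted maximal effect; nearly all actives have a fitted effect of over 60% in size; about a fifth of the inactives were tested at one dose only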
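Cells in DMEM/10% FBS with G418 were pretreated with compounds in DMSO plus […] (300 uM stock) for 30 min at 37C. cAMP was measured by HTRF (cAMP-d2 plus anti-cAMP antibody-K) after 30 min at room temperature.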
Numbers without * were called inactive; & = joins results of further samples; ! = not active in a repeat; [ ] = dose if it differs, or a comment.

CC(OC(=O)C1=COCCO1)C(=O)Nc1ccc(Oc2ccccc2)cc1 (centres undefined) was read as TRPML1 inh 11, ClpP mod 0.7%, gsp antagonist -11%, Sfp PPTase inh 4%, TRPV1 potentiator -4, Menin MLL FP FL 0.8 and gsp ag -8%.
For O=C(CCc1nc2ccccc2c(=O)[nH]1)NCc1ccco1 the results were TRPML1 inh -10, ClpP mod -6.4%, gsp antagonist -10%, Sfp PPTase inh 8%, TRPV1 potentiator 7, Menin MLL FP FL -0.4 and gsp ag 3%[15.4 µM].
Cn1c(=O)[nH]c(=O)c2c1nc(N1CCCCC1)n2C/C=N/NC(=O)c1cc(Br)ccc1O was read as TRPML1 inh -7, ClpP mod -9.1%, gsp antagonist -13%, Sfp PPTase inh 13%, TRPV1 potentiator 7, Menin MLL FP FL 4.2 and gsp ag inconclusive.
`CCCN1CCC(=O)N([C@H](CSc2ccc(Br)cc2)Cc2ccccc2)CC1` gave TRPML1 inh -2, ClpP mod -3.5%, gsp antagonist -6%, Sfp PPTase inh inconclusive, TRPV1 potentiator -45 and Menin MLL FP FL -2.7.
`COc1ccc(NC(=O)CCC(=O)c2cccs2)cc1S(=O)(=O)Nc1ccc(Cl)cc1` gave TRPML1 inh -4, ClpP mod -1.8%, gsp antagonist -1%, Sfp PPTase inh 24%, TRPV1 potentiator 0, Menin MLL FP FL 10 and gsp ag 21%.
COc1ccc(N2CCN(C(=O)Cc3nn(C)c(=O)c4ccccc34)CC2)cc1 was read as TRPML1 inh 25, ClpP mod -4.0%, gsp antagonist -14%, Sfp PPTase inh -4%, TRPV1 potentiator -7, Menin MLL FP FL -3.1 and gsp ag -50%[inhibitor].
Screening COc1ccc(CCNC(=O)COC(=O)/C=C/c2cccc(F)c2)cc1 returned TRPML1 inh -5, ClpP mod 0.6%, gsp antagonist 5% and gsp ag 14%[15.4 µM].
Screening Cc1cc(C)cc(NC(=O)C2CCN(C(=O)[C@@H]3Cc4ccccc4CN3)CC2)c1 returned TRPML1 inh -23, ClpP mod -1.6%, gsp antagonist 3%, Sfp PPTase inh 3%, TRPV1 potentiator 2, Menin MLL FP FL -7.8 and gsp ag 3%.
O=C(Nc1ccccc1C(=O)Nc1ccccn1)c1ccccc1F was read as TRPML1 inh 2, ClpP mod 1.2%, gsp antagonist -2%, Sfp PPTase inh 2%, TRPV1 potentiator -16, Menin MLL FP FL 0.7 and gsp ag 1%.
For O=C(Nc1nnc(COc2ccccc2)s1)c1ccco1 the results were TRPML1 inh 0, ClpP mod -2.7%, gsp antagonist 6%, Sfp PPTase inh 1%, TRPV1 potentiator 15, Menin MLL FP FL -1.1 and gsp ag -23%.
`CN(CC(=O)Nc1ccc(Cl)cc1)CC(=O)Nc1cccc2ccccc12` gave TRPML1 inh -1, ClpP mod 0.4%, gsp antagonist -16%, TRPV1 potentiator -16 and gsp ag 10%.
For Cc1cc(C)n(-c2ccc(C(=O)OCn3nnc4ccccc4c3=O)cc2)n1 the results were TRPML1 inh 33, ClpP mod 3.4%, gsp antagonist -11%, Sfp PPTase inh -11%, TRPV1 potentiator 22, Menin MLL FP FL 2.5 and gsp ag -17%.
For CCOc1cc(/C=N/NC(=O)c2cccnc2)ccc1O the results were TRPML1 inh 9, ClpP mod -1.1%, gsp antagonist 2%, Sfp PPTase inh 20%, TRPV1 potentiator 2, Menin MLL FP FL 0.7 and gsp ag -9%.
Screening CC(NC(=O)C1CCN(S(=O)(=O)c2ccc(Br)s2)CC1)c1ccccc1 (centres undefined) returned TRPML1 inh 27, gsp antagonist -14%, Sfp PPTase inh 2%, TRPV1 potentiator -21, Menin MLL FP FL -1.3 and gsp ag -9%.
CN1CCN(C(=O)CSc2nc3ccc(NC(=O)c4ccccc4F)cc3s2)CC1 was read as TRPML1 inh 2, ClpP mod 0.7%, gsp antagonist -11%, Sfp PPTase inh 4%, TRPV1 potentiator inconclusive, Menin MLL FP FL 2.1 and gsp ag -9%.
Screening COC(=O)[C@@]12CCCN1[C@H](c1ccc(-c3ccc(Cl)c(Cl)c3)cc1)[C@H]1C(=O)N(C)C(=O)[C@H]12 returned TRPML1 inh 29, ClpP mod 0.1%, gsp antagonist -4% and TRPV1 potentiator 21.
`COc1ccc2oc(-c3ccc(C)c(NC(=O)CSc4ccc(Cl)cc4)c3)nc2c1` gave TRPML1 inh -8&32, ClpP mod 11µM*!, gsp antagonist -5%, Sfp PPTase inh -11%, TRPV1 potentiator -9, Menin MLL FP FL -1.8 and gsp ag -27%.
Screening CSCCC(NC(=O)COc1ccccc1)C(=O)N1CCN(c2ccccc2Cl)CC1 (centres undefined) returned TRPML1 inh 20, ClpP mod -1.3%, gsp antagonist -10%, TRPV1 potentiator -11 and gsp ag 20%.
For CS(=O)(=O)c1ccc(C(=O)OCC(=O)c2ccc(Cl)s2)cc1 the results were TRPML1 inh -15, ClpP mod -2.0%, gsp antagonist -1%, TRPV1 potentiator -7 and gsp ag 4%.
Screening Cc1cccc(C(=O)N2CCCC(Nc3ccc(C)c(C)c3)C2)n1 (centres undefined) returned TRPML1 inh 7, ClpP mod -1.9%, gsp antagonist 4%, Sfp PPTase inh 7%, TRPV1 potentiator -3 and gsp ag 2%.
For CCN(CC)CCNC(CC(=O)Nc1ccc(Cl)cc1Cl)C(=O)O (centres undefined) the results were TRPML1 inh -15, ClpP mod -5.3%, gsp antagonist 0%, Sfp PPTase inh -7%, TRPV1 potentiator 2, Menin MLL FP FL 1.9 and gsp ag 18%.
Screening CC(=O)C1=C(C)N2CCN=C2S1 returned TRPML1 inh 6, gsp antagonist 8%, Sfp PPTase inh -12%, TRPV1 potentiator -14, Menin MLL FP FL 0.2 and gsp ag -13%.
For O=Cc1ccc(OC(=O)/C=C/c2ccccc2)cc1 the results were TRPML1 inh 42, ClpP mod -0.6%, gsp antagonist -2%, Sfp PPTase inh -9%, TRPV1 potentiator inconclusive, Menin MLL FP FL 1.8 and gsp ag 9%.
Screening Cc1cc(-c2ccc(N=Nc3c(S(=O)(=O)O)cc4cc(S(=O)(=O)O)cc(N)c4c3O)c(C)c2)ccc1N=Nc1c(S(=O)(=O)O)cc2cc(S(=O)(=O)O)cc(N)c2c1O returned Sfp PPTase inh 11µM*, TRPV1 potentiator 25 and Menin MLL FP FL inconclusive.
COc1ccccc1NC(=O)C1=C(C)NC(=O)NC1c1ccccc1[N+](=O)[O-] (centres undefined) was read as TRPML1 inh 6, gsp antagonist -29%, Sfp PPTase inh 3.5µM*, TRPV1 potentiator 3, Menin MLL FP FL inconclusive and gsp ag 7%[15.4 µM].
For Cc1[nH]nc(SCC(=O)N2CCCCC2)c1[N+](=O)[O-] the results were TRPML1 inh 5, ClpP mod -0.7%, gsp antagonist 6%, Sfp PPTase inh 3%, TRPV1 potentiator -3, Menin MLL FP FL -0.7 and gsp ag inconclusive.
For CCOc1ccccc1N(CC(=O)Nc1ccc(C)cc1)S(C)(=O)=O the results were TRPML1 inh -7, ClpP mod -1.7%, gsp antagonist -7%, Sfp PPTase inh 3%, TRPV1 potentiator 14, Menin MLL FP FL -2.1 and gsp ag -2%.
Screening Cc1cc(Cl)cc(C)c1OCCn1ccnc1 returned TRPML1 inh 0, gsp antagonist 6%, Sfp PPTase inh 3%, TRPV1 potentiator 15, Menin MLL FP FL 7.5 and gsp ag -35%[inhibitor][15.4 µM].
Screening Cc1cccc(OCCCC(=O)NC(C)C)c1 returned TRPML1 inh -11, ClpP mod -3.2%, gsp antagonist 13%, Sfp PPTase inh 6%, TRPV1 potentiator -2, Menin MLL FP FL -0.4 and gsp ag inconclusive.
For O=C(CN1CCN(CCC(=O)Nc2ccccc2F)CC1)Nc1ccc(Cl)cc1 the results were TRPML1 inh -6, ClpP mod inconclusive, gsp antagonist 9%, Sfp PPTase inh -5%, TRPV1 potentiator 2, Menin MLL FP FL -4.0 and gsp ag -44%[inhibitor].
Screening Cc1ccc(C)c(-n2c(=O)c(C#N)cc3c(=O)n4ccccc4nc32)c1 returned TRPML1 inh 2, gsp antagonist 4%, Sfp PPTase inh 9%, TRPV1 potentiator 19, Menin MLL FP FL 4.9 and gsp ag 4%.
For CNC(=O)c1ccccc1Sc1ccccc1CO the results were TRPML1 inh -2, gsp antagonist 12%, Sfp PPTase inh 4%, TRPV1 potentiator 8, Menin MLL FP FL 7.3 and gsp ag -1%.
`O=C(NC1CCCC1)C(c1ccccn1)N(C(=O)c1csnn1)C1CC1` (centres undefined) gave TRPML1 inh 6, ClpP mod -2.6%, gsp antagonist 8%, Sfp PPTase inh -9%, TRPV1 potentiator -13, Menin MLL FP FL inconclusive and gsp ag -2%.
Screening Cc1ccc(S(=O)(=O)N2CCCC2C(=O)NCc2ccccc2Cl)cc1 (centres undefined) returned TRPML1 inh 8, ClpP mod 0.5%, gsp antagonist -7%, Sfp PPTase inh 1%, TRPV1 potentiator -9, Menin MLL FP FL 0.1 and gsp ag -4%.
`O=C(/C=C/c1cccs1)NNC(=O)c1cccc([N+](=O)[O-])c1` gave TRPML1 inh -5, gsp antagonist 4% and gsp ag 6%.
`COc1ccccc1N(C)S(=O)(=O)c1ccc(C(=O)NCc2ccccc2CN2CCCC2)cc1` gave TRPML1 inh 19, ClpP mod -0.9%, gsp antagonist 2% and gsp ag 26%.
CNC(=O)c1cc2cc(Br)ccc2s1 was read as TRPML1 inh -3, gsp antagonist 4%, Sfp PPTase inh 2%, TRPV1 potentiator -11, Menin MLL FP FL 3.7 and gsp ag 20%[15.4 µM].
For CC/C(=N\NC(=O)CNC(=O)/C=C/c1ccc(OC)cc1)c1ccccc1 the results were TRPML1 inh -3, gsp antagonist 0%, Sfp PPTase inh 17%, TRPV1 potentiator -14, Menin MLL FP FL 0.0 and gsp ag -37%[inhibitor].
Screening NC(=O)C[C@H]1NC(=O)[C@H](CCC(=O)O)NC(=O)c2cc([N+](=O)[O-])cc(I)c2NCCC[C@@H](C(N)=O)NC1=O returned TRPML1 inh 36, ClpP mod 2.5%, gsp antagonist 6%, Sfp PPTase inh 2%, TRPV1 potentiator 12, Menin MLL FP FL 1.1 and gsp ag 0%.
